FGF22 binding – shifts melting point of recombinant human FGF22; Q9HCT0; recombinant FGF22 thermal shift, SYPRO orange fluorescence; percent of sucrose octasulfate shift, DMSO zero; calls only at 9.99 µM; hit rate 1.5% among 340,000; AID 651658;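 active = melting point raised past a set limit in the mean and every replicate; inconclusive = no clear call; three in four hits are not shown here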
Target sequence (Q9HCT0 whole entry, looked up): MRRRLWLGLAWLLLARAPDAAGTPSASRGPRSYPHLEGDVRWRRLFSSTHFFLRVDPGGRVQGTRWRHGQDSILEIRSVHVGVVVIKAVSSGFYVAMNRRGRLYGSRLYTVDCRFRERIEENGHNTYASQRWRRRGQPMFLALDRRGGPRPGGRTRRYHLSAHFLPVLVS
RanGTP-Impb inh – inhibitors of RanGTP-importin-beta interaction, primary screen, biochemical, FRET, CFP-Ran, YFP-importin-beta, homogeneous; cell-free CFP-Ran/YFP-importin-beta FRET ratio; inhibition, % (concentration not given with the values); hit rate 1.1% among 300,000; AID 2216;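 active = most replicates above 15%; inconclusive = exactly half above 15%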;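 also: 0% = DMSO wells and 100% = Ran loaded with GDP instead of GTP; wells of about 40 µL received 100 nL stock; the first replicate is given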
Ecoli growth – E. coli growth inhibition; Escherichia coli growth, OD600, 23 h; stronger effect = lower value; OD600 absorbance (no concentration beside the values); hit rate 0.21% among 330,000;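 active = OD600 absorbance below the run mean of sample wells minus 3.6 SD, in any replicate, cut at about 0.56 in these data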;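 also: stock transfer was 300 nL into about 60 µL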
UCH37 inh – inhibitors of human deubiquitinating enzyme UCH37. purified proteasome/UCH37, Ub-AMC cleavage fluorescence. inhibition, % (test concentration not listed). hit rate 0.33% among 330,000. AID 588478;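 active = mean of two replicates above 20%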;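 also: 0% = compound-free wells with enzyme and 100% = wells lacking proteasome; stock transfer was 100 nL into about 20 µL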
Target sequence (Q9Y5K5 whole entry, looked up): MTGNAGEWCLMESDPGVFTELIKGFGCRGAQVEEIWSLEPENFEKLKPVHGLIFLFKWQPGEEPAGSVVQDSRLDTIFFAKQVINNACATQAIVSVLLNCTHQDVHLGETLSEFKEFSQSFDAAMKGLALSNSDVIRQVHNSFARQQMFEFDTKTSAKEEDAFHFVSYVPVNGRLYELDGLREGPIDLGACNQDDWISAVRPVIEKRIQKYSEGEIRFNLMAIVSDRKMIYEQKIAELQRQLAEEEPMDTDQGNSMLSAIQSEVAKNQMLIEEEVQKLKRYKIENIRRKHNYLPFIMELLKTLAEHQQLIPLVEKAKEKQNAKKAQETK
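assay system = human UCH37 enzyme supplied as purified proteasome complex | amount = proteasome at 0.15 nM in the dispensed enzyme solution | schedule = 30 min compound-proteasome preincubation then 25 min substrate reaction, room temperature | measured by = fluorescence, ex 355 nm, em 460 nm | benchmarks = no-proteasome wells (full inhibition) and compound-free wells (no inhibition)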
Vif TR-FRET – inhibitors of Vif binding to APOBEC3G peptide, primary screen, biochemical, TR-FRET, GST-Vif 1-94, biotin-A3G peptide, dose response retest (AID 1117319); inhibition, %; hits with a dose series show IC50 in µM; TR-FRET GST-Vif / biotin-A3G peptide binding; higher % means a stronger effect; test concentration not given here; strong numbers were not always called active; hit rate 0.57% among 260,000;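 active = above the screen mean plus three standard deviations and confirmed in dose response; inconclusive = results disagree or hit not tested in dose response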;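 also: Vif residues 1-94 fused to GST binding biotinylated APOBEC3G peptide 110-148; 0% = full assay without inhibitor and 100% = GST in place of GST-Vif; retest series ran down from 100 µM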
AF4-AF9 inh – blocks AF4 peptide binding to human AF9. P42568. AlphaScreen, biotin-AF4 peptide binding to FLAG-AF9. inhibition, % at 10 µM. hit rate 0.47% among 350,000. AID 651704;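 active = every replicate reaching a set inhibition limit, whatever the replicate mean, cut at about 25% in these data; inconclusive = mean inhibition reaches that limit but some replicates miss it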;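 also: 0% = plate neutral control median and 100% = total signal loss; the record names both 10 and 1 µM as test concentration; the first replicate is given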
HNF4A DNA FP – change in binding of human HNF4 alpha to DNA; AID 1224865; HNF4a-FITC DNA binding, fluorescence polarization, 1 h; activity change, % at 10 µM; P41235; hit rate 0.3% among 360,000; in the data active = activity change above about 30%, passing the limit was not always enough;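 also: controls were the assay level and a saturating level of protein; the project sought stronger binding though the title names inhibitors; some compounds called inactive have numbers as strong as hits; positive values seem to mean higher polarization but the record does not say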
Target sequence (P41235 whole entry, looked up): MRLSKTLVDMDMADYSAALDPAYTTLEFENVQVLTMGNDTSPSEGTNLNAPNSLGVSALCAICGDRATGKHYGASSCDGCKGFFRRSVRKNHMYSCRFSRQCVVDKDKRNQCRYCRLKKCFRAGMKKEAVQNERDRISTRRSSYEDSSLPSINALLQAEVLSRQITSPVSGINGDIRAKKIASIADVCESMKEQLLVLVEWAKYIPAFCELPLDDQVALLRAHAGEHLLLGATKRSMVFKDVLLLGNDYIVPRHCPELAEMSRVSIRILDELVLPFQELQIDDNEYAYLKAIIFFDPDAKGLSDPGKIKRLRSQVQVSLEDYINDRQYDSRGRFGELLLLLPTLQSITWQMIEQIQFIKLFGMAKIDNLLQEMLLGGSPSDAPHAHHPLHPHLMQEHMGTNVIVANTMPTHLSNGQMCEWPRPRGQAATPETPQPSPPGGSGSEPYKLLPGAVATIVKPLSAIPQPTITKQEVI
* hit, by the source's call; i = inactive; ? = inconclusive; nt = no result given; & = joins results of further samples. The list is partial; count on the stated rates, not on these rows.

Values run as follows: RanGTP-Impb inh, UCH37 inh, Vif TR-FRET, HNF4A DNA FP, FGF22 binding, AF4-AF9 inh, Ecoli growth
> O=C(NCCS(=O)(=O)N1CCN(c2ccccc2F)CC1)c1ccco1
→ ?, 1.4, 0%, 2.0, i, -0.6, 0.68
> O=C(NCc1ccccc1)C1(c2cccc(F)c2)CCCC1
→ 1.3, 3.7, nt, 1.3, i, -2.9, 0.71
> CN1CCN(/N=C/c2ccc(OCc3ccccc3)cc2)CC1
→ 3.4, nt, -5%, 3.9, i, 18, nt
> CC(CN1CCN(C)CC1)OC(=O)c1cccc(Cl)c1 (centres undefined)
→ -1.7, 4.3, -1%, 0.6, i, -43, 0.69
> CC1CC(C)CN(C(=O)c2cccc(S(=O)(=O)Nc3cc(C(F)(F)F)ccc3Cl)c2)C1 (centres undefined)
→ -1.1, -3.2, 10%, 1.4, nt, -6.4, 0.69
> Cc1ccc(S(=O)(=O)N(C(=O)c2ccncc2)c2ccc(OC(=O)c3ccncc3)cc2)c(C)c1
→ 1.6, -0.1, nt, 1.8, i, -34, 0.68
> COC(=O)C1Cc2ccccc2CN1S(=O)(=O)c1ccc(F)cc1 (centres undefined)
→ -2.2, 5.8, -6%, 1.5, i, 3.2, 0.62
> COc1ccc2c(c1)C1=NN(/C(C)=C/C(C)=O)C(c3cccc(F)c3)C1CC2 (centres undefined)
→ 10.0, 1.2, -1%, 29, i, 15, nt
> CCOC(=O)C1(CCOc2ccccc2)CCN(Cc2cccc3c2OCO3)CC1
→ -3.4, 2.7, 1%, -4.9, i, 6.1, 0.66
> COc1ccc(N(CC(=O)NCCSc2ccccn2)S(=O)(=O)c2ccccc2)c(OC)c1
→ -1.2, 5.9, nt, -2.5, i, -2.1, 0.66

Compound profiles, from the list above. Order of values: RanGTP-Impb inh	UCH37 inh	Vif TR-FRET	HNF4A DNA FP	FGF22 binding	AF4-AF9 inh	Ecoli growth
Record of CCOC(=O)C1(CCOc2ccccc2)CCN(Cc2cccc3c2OCO3)CC1 → -3.4	2.7	1%	-4.9	i	6.1	0.66
Record of COC(=O)C1Cc2ccccc2CN1S(=O)(=O)c1ccc(F)cc1 (centres undefined) → -2.2	5.8	-6%	1.5	i	3.2	0.62

(continued)
Values run as follows: RanGTP-Impb inh, UCH37 inh, Vif TR-FRET, HNF4A DNA FP, FGF22 binding, AF4-AF9 inh, Ecoli growth
> Cc1nn(C(=O)c2cc([N+](=O)[O-])ccc2Cl)c(C)c1Br
→ -0.3, -0.9, -6%, 0.9, i, 9.2, 0.67
> O=C(COC(=O)/C=C/c1ccc(S(=O)(=O)N2CCc3ccccc32)cc1)NC1CCS(=O)(=O)C1 (centres undefined)
→ 2.5, 4.4, 33%, 3.2, i, 6.7, 0.64
> CC1(C)CC(=O)c2sc(NS(=O)(=O)c3ccccc3)nc2C1
→ ?, 11, -11%, 3.1, i, -3.2, 0.7
> COc1ccc(NC(=O)CS(=O)c2ccc(Cl)c(Cl)c2)cc1 (centres undefined)
→ 2.7, 4.6, nt, -0.4, i, -4.1, 0.69
> O=C(CSc1nn(-c2ccc(F)cc2)c(=S)s1)N1CCN(C(=O)c2ccco2)CC1
→ 2.9, 3.3, 11%, 5.2, nt, nt, 0.66
> CCN(CC)CCNC(=O)c1ccc(NC(=O)c2ccc(S(=O)(=O)N(C)c3ccccc3OC)cc2)cc1
→ nt, 3.5, nt, -1.2, i, 9.6, 0.71
> Cc1cccc(OCC(O)CN2CCNCC2)c1 (centres undefined)
→ 1.2, -1.1, -1%, 2.4, i, 0.8, 0.69
> CCOC(=O)C1=C(C)NC(C)=C(C(=O)OCC)C1c1ccccn1
→ -0.8, -46, 3%&6%, 2.4&-1.9, i, 2.7, 0.74
> CCOC(=O)Cn1nc(-c2ccccc2)ccc1=O
→ ?, 2.7, -4%, 1.8, nt, nt, 0.69
> CNS(=O)(=O)c1cccc(C(=O)OCC(=O)Nc2ccc(Cl)cn2)c1
→ -4.0, -0.3, 1%, 0.3, i, -2.2, 0.75
> CC(=O)Nc1cccc(/C(C)=N/NC(=O)c2ccc(O)cc2)c1
→ -1.8, nt, -1%, 2.8, i, -2.0, nt
> O=C(CCOc1ccccc1)Nc1nnc(-c2ccc3c(c2)OCCO3)o1
→ -1.1, 1.5, -7%, -0.5, i, -1.4, 0.67
> CC1CCCN(C(=O)Cc2cn(Cc3cccc(Cl)c3)c3ccccc23)C1 (centres undefined)
→ 2.1, 3.8, -7%, -0.8, i, 4.8, 0.72
> CCOC(=O)c1c(NC(=O)CSc2ncn[nH]2)sc(C(C)=O)c1C
→ 6.7, 7.8, -6%, 1.4, i, -16, 0.74
> O=C(NCCSc1c[nH]c2ccccc12)c1ccc2c(c1)OCO2
→ -4.2, 5.9, -3%, 1.6, i, -7.1, 0.74
> O=C(Nc1ccccc1)OCc1cncs1
→ 1.1, 4.6, 9%, 0.4, i, 2.3, 0.63
> COC(c1ccccc1)c1nnc(CCC(=O)NC2C3CC4CC(C3)CC2C4)o1 (centres undefined)
→ -2.4, 1.3, -5%, -2.1, i, -1.7, 0.68
> CCOC(=O)C1=C(C)OC(N)=C(C#N)C1c1cccc(C)c1 (centres undefined)
→ 0.5, 1.8, nt, -5.2, i, -0.7, 0.67
> CSc1ncccc1C(=O)OCC(=O)N(C)Cc1ccc(C)cc1
→ nt, nt, -7%, 0.2, i, -1.5, nt
> CN1CCN(c2ccc(CNC(=O)C3Cc4c(-c5ccccc5)ccnc4O3)cc2)CC1 (centres undefined)
→ nt, nt, nt, 0.1, i, 5.7, nt
> COc1ccccc1/C=N/NC(=O)c1c(-c2ccccc2)noc1C
→ 2.9, nt, nt, 4.2, i, 3.2, nt
> Cc1ccc(-n2nnnc2-c2ccccc2Br)cc1
→ 1.5, 2.9, nt, 5.5, i, 1.8, 0.68
> CC(=O)Oc1cccc(N2C(=O)c3ccc(C(=O)Nc4c[nH]c(=O)[nH]c4=O)cc3C2=O)c1
→ -2.8, -2.5, -3%, -0.3, nt, nt, 0.65
> O=c1c2cc(Br)ccc2[nH]c(=S)n1Cc1ccccn1
→ -0.5, 4.7, -39%, -0.1, i, 2.9, 0.68
> O=C(OCCO)c1cc(Cl)c(C(=O)OCCO)cc1Cl
→ ?, 0.3, 0%, -1.6, nt, nt, 0.74
> CN(CC(=O)Nc1c(Cl)cccc1Cl)C(=O)CCNS(=O)(=O)c1ccccc1C(F)(F)F
→ 2.4, nt, nt, -2.8, i, -7.1, nt
> CCCSc1nc(NCc2ccco2)c2c3c(sc2n1)COC(C)(CC)C3 (centres undefined)
→ 9.2, 1.3, ?, -5.0, nt, nt, 0.68
> Cc1cc(=O)oc(C)c1C(=O)Nc1ccc2ncccc2c1
→ -0.6, -1.2, ?, -42, nt, nt, 0.71
> N/C(=N\OC(=O)CCC1CCCC1)c1ccncc1
→ -0.3, 3.0, nt, 0.5, i, -1.7, 0.72
> O=C(NCCC1=CCCCC1)C(=O)NCC(c1ccco1)N1CCN(c2ccc(F)cc2)CC1 (centres undefined)
→ ?, 1.0, 7%, 0.7, nt, nt, 0.72
> NC(=O)C1CCCN(C(=O)c2cccc(NC(=O)c3cccs3)c2)C1 (centres undefined)
→ nt, 1.4, -11%, 0.9, i, -9.4, 0.69
> CC(C)c1nc(CN(C)C(=O)N[C@H](C(=O)N[C@@H](Cc2ccccc2)C[C@H](O)[C@H](Cc2ccccc2)NC(=O)OCc2cncs2)C(C)C)cs1
→ 4.6, 3.9, -7%, nt, nt, nt, nt
> CCn1cnc2scc(-c3ccccc3)c2c1=O
→ 5.9, 2.4, -5%, 2.8, nt, nt, 0.68
> O=C1C2C3C=CC(C3)C2C(=O)N1c1ccccc1 (centres undefined)
→ -1.3, 1.4, 24%, -0.1, nt, nt, 0.7
> CCOc1cc(S(=O)(=O)N2CCN=C2Cc2ccccc2)ccc1F
→ ?, -2.2, nt, 1.1, i, -2.4, 0.7
> COCCN(Cc1cc2cc3c(cc2nc1Cl)OCO3)C(=O)Nc1ccc(OC)cc1
→ 1.2, 4.6, 0%, 2.8, i, -4.3, 0.74
> O=C(Nc1ccc2c(c1)OCO2)c1cccc2c1C(=O)N(C1CCCCC1)C2
→ ?, -4.1, 8%, -0.2, i, -4.2, 0.66
> COC(=O)CCCC(=O)N1CCCC(C(=O)c2ccccc2SC)C1 (centres undefined)
→ -1.7, 3.5, nt, -1.2, i, -4.1, 0.66
> CC(NC(=O)c1ccccc1)C(=O)NC1=NCCS1 (centres undefined)
→ ?, 1.1, 0%, 1.9, nt, nt, 0.74
> N#C/C(=C/c1ccc(-c2cc(C(=O)O)cc(C(=O)O)c2)o1)c1nc2ccccc2s1
→ -69, 28*, nt, nt, nt, nt, 0.6
> CCCCCCCCN1C(=O)[C@H](CC(=O)NCCCN2CCCC2=O)C[C@@]2(C(=O)OC)CC(C)(C)CC=C12
→ nt, nt, nt, 1.5, i, -0.5, nt
> C[C@H]1C(=O)N(C)CCN1C(=O)c1cccc(OC2CCN(CC(C)(C)C)CC2)c1
→ 12, 1.0, -4%, -5.4, i, 2.0, 0.67
> COc1ccc(NC(=O)N2CCc3ccccc3C2)c(OC)c1
→ 1.8, 1.2, -1%, 0.2, i, 0.4, 0.69
> CC1CCCN(CCCNC(=O)CN2C(=O)CSc3ccc(S(=O)(=O)N4CCOCC4)cc32)C1 (centres undefined)
→ -1.7, 1.0, -6%, 11, i, -3.0, 0.68
> Oc1ccc(Nc2nnc(-c3ccc(O)cc3)c3ccccc23)cc1
→ ?, 2.4, -4%, -1.2, nt, 0.7, 0.72
> C#CCOCCOCCOCCNc1nc(N2CCN(C(=O)[C@H](CCC(=O)O)n3cc(CN)nn3)CC2)nc(N2CCN(C(=O)[C@H](CCC(=O)O)n3cc([C@@H](N)[C@H](C)CC)nn3)CC2)n1
→ nt, 0.0, -1%, 3.0, i, -4.5, 0.67
> CC(C)Oc1ccc(CC2CCC(=O)N(C)C2=O)cc1 (centres undefined)
→ -0.7, 1.7, nt, 0.3, i, 7.6, 0.67
> CC1(C)C=C2C(=NN(c3ccccc3)C(N)=C2C#N)CO1
→ -0.9, nt, nt, -5.8, i, 15, nt
> CN1C(CC(=O)Nc2ccc(Br)cc2)c2ccccc2CC1(C)C (centres undefined)
→ 4.3, 1.2, 10%, 0.1, i, 5.9, 0.71
> Cc1ccc(C(=O)CCC(=O)N2CCC(C(N)=O)CC2)cc1
→ -2.9, -1.4, -4%, 3.5, i, -1.3, 0.7

The list continues:
Values run as follows: RanGTP-Impb inh, UCH37 inh, Vif TR-FRET, HNF4A DNA FP, FGF22 binding, AF4-AF9 inh, Ecoli growth
> Cn1ncc(N2CCN(C(=O)c3ccc(Cl)cc3)CC2)c(Cl)c1=O
→ -1.4, 6.9, 2%, 1.0, i, 0.5, 0.66
> CC1(Oc2ccc3ccccc3c2)CCN(Cc2cccn2-c2nccs2)C1 (centres undefined)
→ nt, nt, nt, -1.1, i, 13, nt
> COC(=O)c1ccc(Cn2nc([N+](=O)[O-])c(Br)c2C)cc1
→ -3.0, 7.4, 0%, 0.4, i, nt, 0.65
> COc1cccc(NC(C)(C)c2nnnn2-c2c(C)cccc2C)c1
→ 1.4, nt, nt, -4.2, i, 0.7, nt
> C=CCOC(=O)C1=C(C)NC(SCC(=O)Nc2nccs2)=C(C#N)C1c1cccs1 (centres undefined)
→ 0.4, 0.9, 1%, 0.6, nt, nt, 0.76
> COC(=O)Nc1sc2nc(C)cc(C)c2c1-n1cccc1
→ 6.3, 2.9, 66%, 0.8, nt, nt, 0.67

Bioassay records: PubChem, several laboratories
